Bioassay records deposited in PubChem BioAssay by several laboratories.
Bfl-1 A1 inh: inhibitors of the anti-apoptotic protein A1, read as caspase activation; 0.066% of 330,000 active; caspase activation, % (concentration not given with the values); MEF A1-2A-BIM cells, Caspase-Glo 3/7 luminescence, 3 h; percent of clofoctol response, vehicle zero;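 active = over half of replicate activation scores above 10%, or exactly half above 10 with the replicate mean above 10; inconclusive = replicate mean below 10 yet half the replicates above 10; inactive = over half of replicates below 10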;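 note: wells of about 30 µL received 50 nL stock; many hits fall short of the cut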
Beta cell apopt: blocks beta cell apoptosis; INS-1E cytokine-induced death, ATP luminescence, 48 h; percent of positive-control rescue, neutral wells zero; protection from apoptosis, % (concentration not given with the values); 0.8% of 300,000 active;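 active = all replicates at 75% or more, or half of them and the mean; inconclusive = half reach 75% but not the mean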;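 note: 0% = cytokine-treated negative control wells and 100% = positive control rescue; higher means more ATP so stronger rescue from cytokine killing; wells of about 40 µL received 100 nL stock; the first replicate is given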
T cruzi inh: T. cruzi replication inhibition. T. cruzi beta-gal in NIH3T3, luminescence, 90 h. 1.4% of 300,000 active. inhibition, % (no concentration beside the values);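 active = mean inhibition across valid replicates above about 55%, limit read from the data; inconclusive = mean below that limit but half or more replicates reach it; inactive = mean below it, under half of replicates reach it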;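 note: signal also drops with host cell toxicity which is not excluded here; 0% = plate median of DMSO wells and 100% = zero luminescence signal; higher percent means less beta-gal luminescence so fewer parasites; stock transfer was 50 nL into about 50 µL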
Beta2AR agonist: agonists of human beta-2 adrenergic receptor inducing internalization; AID 504454; Am2.2-beta2AR cells, FAP receptor internalization, flow cytometry; reference of the scale not given here; P07550; 0.43% of 340,000 active; response, % (no concentration beside the values);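 active = response above a set limit, near 3 SD of response in nonfluorescent compounds, cut at about 42% in these data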;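 note: stock transfer was 100 nL into about 11 µL; a reference agonist was the positive control; negative values mostly stem from fluorescent compounds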
Target sequence (P07550 whole entry, looked up): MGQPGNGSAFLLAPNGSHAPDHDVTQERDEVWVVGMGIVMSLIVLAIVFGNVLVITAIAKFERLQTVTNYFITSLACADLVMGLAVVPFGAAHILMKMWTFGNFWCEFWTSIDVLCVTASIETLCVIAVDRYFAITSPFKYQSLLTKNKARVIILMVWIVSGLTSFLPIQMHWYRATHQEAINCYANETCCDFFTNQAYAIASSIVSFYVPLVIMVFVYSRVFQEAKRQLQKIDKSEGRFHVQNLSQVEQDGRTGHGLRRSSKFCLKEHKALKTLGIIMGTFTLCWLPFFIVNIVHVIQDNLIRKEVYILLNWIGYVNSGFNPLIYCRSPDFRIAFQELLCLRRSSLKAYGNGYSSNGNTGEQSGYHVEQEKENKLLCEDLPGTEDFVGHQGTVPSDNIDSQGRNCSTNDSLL
Calb FLC: affects C. albicans growth with fluconazole | C. albicans CaCi-2 (fluconazole-resistant clinical isolate) + fluconazole, Alamar Blue growth, 48 h | growth inhibition, % (concentration not given with the values) | 0.57% of 300,000 active | AID 1979;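 active = most replicates above 75%; inconclusive = exactly half above 75%; inactive = most below 75%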;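 note: all wells also contain fluconazole at 8 µg/ml as a sub-toxic cotreatment; 0% = median of DMSO wells and 100% = median of geldanamycin control wells; wells of about 8 µL received 7.5 nL stock; the first replicate is given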
Ecoli rRNA inh: inhibitors of bacterial rRNA selective over humanized ribosomes; E. coli WT GFP vs humanized-ribosome RFP mutants, fluorescence, 24 h; hits give low values; DMSO median 0, no signal -100; GFP signal change (wild-type ribosome), % (test concentration not listed); 1.6% of 350,000 active;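 active = significant combined selectivity score with lowered wild-type GFP, culture density cut under 30%, mutant RFP and density less affected; inactive = any of these conditions unmet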; note: one replicate is shown; some compounds called inactive have numbers as strong as hits
ALR inh: blocks human ALR sulfhydryl oxidase activity | 3.8% of 290,000 active | P55789 | inhibition, % (no concentration beside the values) | purified ALR, DTT oxidation, H2O2 HRP-luminol luminescence;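 active = mean and each replicate at 75% or more; inconclusive = only one of the two met; inactive = neither met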;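 note: stock transfer was 7.5 nL into about 7.5 µL; 0% = neutral wells and 100% = wells with inactivated enzyme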
Target sequence (P55789 whole entry, looked up): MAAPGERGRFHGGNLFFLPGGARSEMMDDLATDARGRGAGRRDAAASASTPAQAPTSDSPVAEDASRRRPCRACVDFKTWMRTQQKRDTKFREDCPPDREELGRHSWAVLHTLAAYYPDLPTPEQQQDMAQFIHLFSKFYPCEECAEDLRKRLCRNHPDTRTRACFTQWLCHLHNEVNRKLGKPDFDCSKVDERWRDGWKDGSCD
LANA-H2B inh: blocks KSHV LANA binding to histone H2A/H2B. 0.6% of 320,000 active. Q9QR71. inhibition, % (concentration not given with the values). cell-free LANA-H2A/H2B peptide, fluorescence polarization; in the data active = inhibition mostly above about 10%, no sharp cut-off; inactive = mostly below about 6.7%;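 note: stock transfer was 7.5 nL into about 10 µL; 0% = median of vehicle wells and 100% = median of positive control wells; one replicate is shown; the record names a cut of 25% in any replicate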
Ecoli rRNA inh OD600: recorded beside Ecoli rRNA inh, whose call it bears; OD600 change, %; measured here: OD600 growth;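 optical density of the mix in the first replicate; 0 = DMSO median and -100 = no signal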
Ecoli rRNA inh RFP: further read-out of Ecoli rRNA inh, marked with its call; RFP signal change, %; measured here: RFP humanized mutant strains;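 first replicate; 0 = DMSO median and -100 = no signal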
Starred values were filed as active, the others as inactive; ? = inconclusive; . = no result given; & = joins results of further samples.

SMILES	Bfl-1 A1 inh	Beta cell apopt	T cruzi inh	Beta2AR agonist	Calb FLC	Ecoli rRNA inh	Ecoli rRNA inh OD600	Ecoli rRNA inh RFP	ALR inh	LANA-H2B inh
Cc1ccccc1NC(=O)c1ccccc1N(C)S(=O)(=O)c1ccccc1	0.6	6	-34	-2	2	-19*	1.9*	4.3*	3	3.2
CCOC(=O)CC1Sc2ccccc2NC1=S (stereo unspecified)	0.2	-15	-3	-6	0	1	9	-1.9	.	3.0
COc1ccc(OCC(O)COc2ccc(OC)cc2)cc1	-0.9	-8	2	-3	1	.	.	.	-32	2.0
CN(C(=O)CCN1C(=O)C(C)(C)Nc2ccccc21)c1ccccc1	-0.2	9	.	2	.	.	.	.	55	-2.3
CC1(C)Cc2c(sc3nc4n(-c5ccccc5)c(=O)c(CCC(=O)O)nn4c(=O)c23)CO1	0.6	-6	-9	4	-4	2	-3	-12	-7	4.0
CCO[C@H]1OC(C(=O)N2CCN(C)CC2)=C[C@@H](C)[C@@H]1CCCO	-0.4	-3	-22	-3	-10	5	4	0.8	-5	2.2
COc1ccc(OC)c(S(=O)(=O)n2ccnc2C(C)C)c1	0.3	0	-15	9	-3	9	5	0.4	.	2.4
CCOc1ccc(C(=O)CCC(=O)N2CCN(c3ccccc3O)CC2)cc1	-1.0	3	.	5	.	-4	-11	4.3	-12	-7.6
O=C(COC(=O)c1ccccc1[N+](=O)[O-])NC(=O)c1ccccc1	-0.6	.	-2	-3	1	4	-4	-1.2	-1	-4.3
COc1ccc(Nc2nc(N)c(C(=O)c3ccc(F)cc3)s2)cc1	0.5	3	8	34	41	-25	-45	2.8	10	2.0
O=C(C1CC1)N1CCc2cc(Br)cc(S(=O)(=O)N3CCOCC3)c21	-0.7	4	.	-3	.	.	.	.	9	2.7
N#Cc1c(Nc2ccccc2)sc(C(=O)C2CC2)c1N	-0.9	-1	18	3	-28	0	7	3.0	5	1.4
COc1cc(C(=O)Cc2nc3ccccc3n2C)cc(OC)c1OC	-0.1	2	-15	-9	13	0	-1	-0.7	.	0.9
CCCCNC(=S)N(C)/N=C/c1ccc2c(c1)OCO2	0.6	-1	26	-1	10	.	.	.	1	2.9
CCOc1ccc(C(=O)NCC(=O)OCC(=O)N2C(C)CCCC2C)cc1 (stereo unspecified)	1.1	-1	-11	-2	9	.	.	.	-2	0.0
CCCOc1c(Cl)cc(C(=O)NC)cc1OC	1.0	-1	15	-3	6	-5	-4	-2.2	-3	9.8
COc1cccc(CN(C)C(=O)c2cc(S(=O)(=O)N3CCCCCC3)ccc2OC)c1	0.7	-3	.	16	.	-11	-13	6.2	-15	-3.2
CC1CN(C(=O)COC(=O)c2cc3ccccc3cc2O)CC(C)O1 (stereo unspecified)	-2.3	-4	.	-3	.	0	-10	-0.8	-19	3.0
COC(=O)c1cccc(NC2CC(=O)N(c3ccc(OC)c(OC)c3)C2=O)c1 (stereo unspecified)	-0.3	-7	-8	-1	8	.	.	.	.	-11
Nc1ccccc1SC1CC(=O)N(c2ccc3c(c2)OCO3)C1=O (stereo unspecified)	-0.5	-9	-2	-3	-1	21	11	0.2	-7	-2.4
COC(=O)C1=C(C)NC(=O)CC1c1ccccc1F (stereo unspecified)	-1.4	.	2	7	7	6	-4	-1.3	-14	1.0
CCOc1ccc(N(C)C(=O)CCc2nnc3ccc(N4CCCC4)nn23)cc1	0.2	-2	-7	-8	45	-1	-2	0.8	-1	5.6
COc1ccc(-c2[nH]ncc2C2N=C(N)Nc3nc4ccccc4n32)cc1 (stereo unspecified)	0.7	-5	-1	-6	-14	0	-17	-0.9	-3	-2.6
CCOC(=O)c1ccc(NC(=S)N(CCN(C)C)Cc2cccs2)cc1	0.9	-8	16	7	?	-11	-20	2.0	1	-5.7
O=C(CCc1ccccc1)NCc1ccc(F)cc1	0.7	-7	13	2	-5	12	6	0.4	0	3.7
CCCCc1nnc(NC(=O)C(C)Sc2nc(O)c(Cc3ccccc3)c(=O)[nH]2)s1 (stereo unspecified)	-0.5	-11	-1	8	1	12	16	1.8	45	-2.4
CC(C)(O)C1=NOC(c2ccccc2)C1 (stereo unspecified)	0.3	-2	-1	24	1	.	.	.	-7	9.1
CC(C)NC(=O)N(C)C[C@H]1Oc2ccc(NS(=O)(=O)c3ccccc3)cc2C(=O)N([C@H](C)CO)C[C@@H]1C	0.4	0	.	-8	.	13	2	7.9	-6	-4.2
Cc1ccc(NC(=O)CC2SCCNC2=O)cc1[N+](=O)[O-] (stereo unspecified)	-0.3	-12	-24	-5	6	3	1	1.4	-2	-1.2
Cc1cc(OC(=O)c2ccc(C(C)(C)C)cc2)c([N+](=O)[O-])c(=O)[nH]1	0.3	2	-2	-6	5	-2	9	-0.4	1	-0.6
Cc1ccccc1/C=N/NC(=O)CSc1nc2ccccc2o1	1.8	2	-15	-14	3	.	.	.	-5	0.3
COC(=O)c1cccc(NC(=S)N2CCN(c3ccccc3F)CC2)c1	-0.4	.	-1	-5	19	2	-4	-1.5	-6	1.7
O=C1CCC/C1=C\Nc1ccc(Cl)c([N+](=O)[O-])c1	-0.6	1	5	4	-4	3	-9	-0.2	.	-2.9
S=C(N/N=C/c1ccc2c(c1)OCO2)NC1CC2CCC1C2 (stereo unspecified)	0.2	11	29	-19	3	-9	1	-0.7	-6	6.6
COc1ccc2nc(C)cc(SCC(=O)NNC(=O)COc3ccc(C)cc3)c2c1	?	6	-2	-1	-2	.	.	.	2	0.1
O=C(Nc1ccc(Cl)c(S(=O)(=O)N2CCOCC2)c1)c1ccncc1	1.0	-6	.	7	.	0	11	1.3	2	7.6
O=C(COc1ccc(Cl)cc1)N1CCN(C(=O)c2ccccc2F)CC1	-0.1	-6	5	6	1	5	18	5.6	-8	5.9
C=CCn1c(C(CC)CC(C)(C)O)n[nH]c1=S (stereo unspecified)	0.6	-1	-5	5	28	-1	4	-0.2	59	-1.5
Cc1cccc(NC(=S)NC(=O)c2cccs2)n1	-0.6	-5	18	-7	7	.	.	.	20	-3.2
Cc1ccn(CCC(=O)N2CCCC(CCC(=O)N3CCN(c4ccccn4)CC3)C2)n1 (stereo unspecified)	0.1	-6	2	-3	3	17	10	2.1	-2	4.7
COc1cccc(C(C(=O)NC2CCCC2)N(C(=O)c2csnn2)C2CC2)c1 (stereo unspecified)	0.1	3	-6	-3	3	2	1	-0.9	8	0.5
CC(NC(=O)[C@H](C)NC(=O)N1CCn2c1nc1ccccc12)c1ccccc1 (stereo partly specified)	-0.1	7	-6	-10	2	5	2	-5.1	-7	2.9
Cc1noc(C)c1NC(=O)N(C)C[C@H]1Oc2ccc(NS(=O)(=O)c3ccccc3)cc2C(=O)N([C@H](C)CO)C[C@@H]1C	0.4	-13	.	-2	.	0&4	5&11	-0.1&0.6	-1	7.8
CCC(C)[C@H](NC(=O)N1CCN(c2cccc(C(F)(F)F)c2)CC1)C(=O)OC (stereo partly specified)	-1.2	-3	24	3	4	-43	-68	-17	-4	3.0
CCOC(=O)NNC(=O)C12CC3CC(CC(C3)C1)C2	-0.4	-2	5	7	-4	9	3	-0.5	-2	-3.5
C[C@H](NC(=O)c1nc[nH]c1C(=O)NCc1ccccc1)c1ccccc1	-1.4	-8	.	2	.	-37	-61	13	-11	1.3
O=C1c2ccccc2NC(c2ccccc2)N1c1ccc(O)cc1 (stereo unspecified)	-0.5	-10	15	-13	7	-4	-1	-9.6	1	-2.7
O=C(c1cc(-c2cccs2)nc2ccccc12)N1CCN(c2ccccc2)CC1	0.4	9	15	-5	19	0	0	-0.9	-1	0.5

Some of the entries so far, with bars between the fields:
compound | Bfl-1 A1 inh | Beta cell apopt | T cruzi inh | Beta2AR agonist | Calb FLC | Ecoli rRNA inh | Ecoli rRNA inh OD600 | Ecoli rRNA inh RFP | ALR inh | LANA-H2B inh
O=C(COc1ccc(Cl)cc1)N1CCN(C(=O)c2ccccc2F)CC1 | -0.1 | -6 | 5 | 6 | 1 | 5 | 18 | 5.6 | -8 | 5.9
Cc1cccc(NC(=S)NC(=O)c2cccs2)n1 | -0.6 | -5 | 18 | -7 | 7 | . | . | . | 20 | -3.2

Carrying on.
SMILES	Bfl-1 A1 inh	Beta cell apopt	T cruzi inh	Beta2AR agonist	Calb FLC	Ecoli rRNA inh	Ecoli rRNA inh OD600	Ecoli rRNA inh RFP	ALR inh	LANA-H2B inh
O=C(/C=C/c1ccc([N+](=O)[O-])cc1)NCCSc1ccccc1	-0.5	-1	9	-1	-22	.	.	.	-12	-5.0
Nc1nc(CCl)nc(Nc2ccccc2)n1	-0.1	-14	28	-1	-2	9	10	0.5	87*	1.7
COc1ccccc1C(=O)NCCn1ccc2ccccc21	-0.2	2	19	6	-15	.	.	.	-1	-4.8
COc1ccccc1C(=O)NC(=S)Nc1cccnc1Cl	-4.4	2	-6	-5	7	-7	-5	-0.4	2	0.8
Cc1cc(Nc2ccc(O)cc2)ccc1N	0.1	25	.	.	.	.	.	.	?	-16
CCn1ncc(/C=C/C(=O)Nc2c(C)nn(CC)c2C)c1C	-0.7	-2	-13	-2	4	.	.	.	-8	-4.3
O=C(Nc1ccc(NC(=O)c2cc3ccccc3o2)cc1)c1ccco1	-2.0	0	21	-8	38	-6	1	-1.3	0	-2.4
FC(F)(F)c1ccccc1NC(=S)Nn1cnnc1	0.9	2	.	8	-7	7	12	0.4	-7	6.6
N/C(=N\OC(=O)CN1C(=O)c2ccccc2C1=O)c1ccc(Br)cc1	0.7	-7	-2	-6	-4	26	11	-2.9	-2	2.8
CCCCn1c(N)c(N(CC)C(=O)CCc2ccccc2)c(=O)[nH]c1=O	0.1	-8	-23	1	-11	.	.	.	-4	0.1
COc1cc(OC)cc(C(=O)NCCOc2ccccc2)c1	-0.6	-5	1	3	42	.	.	.	0	-0.9
CC1CN(C(=S)SCCN2C(=O)CCC2=O)CC(C)O1 (stereo unspecified)	0.1	-1	-13	-5	2	14	7	0.6	-27	6.3
COc1ccccc1NC(=S)N1CCCc2ccccc21	0.0	2	-12	3	21	-6	3	5.5	40	-3.2
CCOc1ccc(CNC(=O)CN2C(=O)CSc3ccc(S(=O)(=O)N4CCOCC4)cc32)cc1OC	-0.3	2	6	0	0	-1	3	0.9	-2	1.4
CC(=O)c1cccc(NC(=O)CSc2nnc(-c3ccc(S(=O)(=O)N4CCCC4)cc3)o2)c1	0.7	-1	-19	11	14	.	.	.	-8	-13
COc1ccc(C(CNC(=O)c2cccc3cccnc23)N(C)C)cc1 (stereo unspecified)	-0.3	5	14	-8	-10	-3	5	0.2	5	3.8
CNS(=O)(=O)c1cccc(C(=O)NCC(C)(C)N2CCCCC2)c1	-0.5	-4	-1	-4	-14	6	9	-0.1	.	14
CCN(C(=O)COC(=O)c1cc(S(=O)(=O)N2CCOCC2)c(Cl)cc1Cl)C1CCS(=O)(=O)C1 (stereo unspecified)	-0.2	-4	-4	-3	-5	12	10	1.7	-8	-6.6
CC1CCN(S(=O)(=O)c2cc(C(=O)Nc3ccccn3)ccc2Br)CC1	0.2	-4	48	1	13	-17	-15	1.6	11	0.1
Cc1cc(-c2nnc(CCC(=O)N(C)CCc3ccccc3)o2)no1	.	.	3	-5	-17	9	11	1.1	.	.

An excerpt, so the mix of outcomes need not match the whole.
